ugtP null kill: growth inhibition of S. aureus ugtP deletion strain | S. aureus RN4220 ugtP deletion, OD600 growth, 16 h; some inactives read as strong as hits | growth inhibition, % (test concentration not listed) | 0.54% of 330,000 active;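 active = z-score under -3 and OD600 up to 0.15 on both plates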;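 also: plate controls were untreated wells for no effect and antibiotic for full effect; wells of about 80 µL received 100 nL stock; the first replicate is given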
Sa RN4220 lethal: S. aureus RN4220 growth inhibition | 0.33% of 330,000 active | OD600, 16 h | AID 1259311 | inhibition, % (test concentration not listed);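 active = z-score of -3 or lower and OD600 up to 0.18 on both plates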;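 also: plate controls were untreated cells for no effect and reference antibiotic for full effect; stock transfer was 100 nL into about 80 µL; one replicate is shown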
PrP UTR inh: suppresses PrP 5' UTR mRNA reporter expression. cell-based PrP 5' UTR mRNA reporter, plate reader. inhibition, % (concentration not given with the values). 0.35% of 340,000 active;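 active = every replicate at 50% or more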;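 also: 0 = median of the neutral control wells; tested in H4 reporter cells; numbers are from one replicate; inactives centre near -14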
BJeLR viability: kills HRASV12-expressing BJeLR cells | BJeLR (HRASV12) viability, CellTiter-Glo ATP luminescence, 48 h; reference of the scale not given here | inhibition, % (no concentration beside the values) | 0.17% of 300,000 active;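 active = replicate mean above 50%; inconclusive = above 50% but judged a plate artefact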;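 also: 50 nL library stock added to about 25 µL; numbers are from one replicate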
Mtb hypoxia inh: inhibitors of hypoxia-regulated fluorescent reporter in Mycobacterium tuberculosis. M. tuberculosis hypoxia-regulated fluorescent reporter, fluorescence. fluorescence inhibition, % (concentration not given with the values). 0.1% of 300,000 active. AID 1159583;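 active = 35 to 45% if threefold the growth effect, above 45% if 1.5-fold the growth effect; inactive = the rest, general growth blockers included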;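 also: wells of about 50 µL received 100 nL stock; 0% = vehicle wells and 100% = reference inhibitor wells; whole bacteria with a GFP reporter of the hypoxia response; strong numbers were not always called active; many hits fall short of the cut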
Bead autofluor: compound fluorescence in toxin protease inhibitor counterscreen. compound autofluorescence counterscreen, microsphere flow cytometry; active compounds read high. fluorescence intensity (no concentration beside the values). 3.1% of 360,000 active. AID 624483;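 active = at least 3 SD above the mean of all compounds, about 16000 in these data; inconclusive = too few beads counted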;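 also: 100 nL of 1 mM stock went into each well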
Mtb hypoxia inh growth: further read-out of Mtb hypoxia inh, marked with its call; growth inhibition, %; measured here: M. tuberculosis growth (absorbance);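 0% = vehicle and 100% = reference antibiotic; read after six days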
Starred values were filed as active, the others as inactive; ? = inconclusive; / = no result given.

1) COc1ccc(C2(C(=O)N3CCC(n4nc(-c5ccccc5)oc4=O)CC3)CC2)cc1
2) COc1ccc(CC(=O)N2CCc3cc(OC)c(OC)cc3C2)cc1
3) CCOCCCNC(=O)C1CCN(Cc2ccc(OCc3ccccc3)c(OC)c2)CC1
4) CCN1CC2C3C(=O)N(C)C(=O)C3[C@](CC)(C1=O)N2C(=O)c1ccc(Cl)cc1 (stereo partly drawn)
5) CC(=O)c1ccc(N=C2SCCCN2C(=O)C2CCCCC2)cc1
6) COc1ccc(NC(=O)CCCN2C(=O)C(c3ccccc3)Oc3cccnc32)cc1OC (stereo not drawn)

screen / no.,1,2,3,4,5,6
ugtP null kill,-3,4,1,2,10,5
Sa RN4220 lethal,-1.9,1.5,-1.5,4.4,3.8,0.0
PrP UTR inh,-21,-16,-32,/,-12,5
BJeLR viability,-7,-7,3,/,-1,1
Mtb hypoxia inh,3,2,10,12,-8,2
Mtb hypoxia inh growth,6,13,7,8,7,-12
Bead autofluor,5471,3459,3878,/,4677,5802

7) C/C(=N\NC(=O)C(NC(=O)c1ccccc1)C(C)C)c1ccccc1 (stereo not drawn)
8) O=C1NCCN(Cc2cccc(Oc3ccccc3)c2)C1CC(=O)N1CCCCO1 (stereo not drawn)
9) Cn1c(SCC(=O)O)nnc1-c1cccc(NC(=O)c2cccc3ccccc23)c1
10) CSc1nnc(Nc2ccccc2C)s1
11) CC1CC(C)(C)NC(=S)N1CCC(=O)N1c2ccccc2CC1C (stereo not drawn)
12) CN(C)CCCn1c(=O)n(C2CCCCC2)c(=O)c2c3c(sc21)CCCCC3

screen / no.,7,8,9,10,11,12
ugtP null kill,/,5,2,1,2,-1
Sa RN4220 lethal,/,-1.3,2.4,7.3,6.1,-0.7
PrP UTR inh,-18,-12,-9,-29,-5,-11
BJeLR viability,-2,-7,10,9,/,-9
Mtb hypoxia inh,/,-6,15,2,4,19
Mtb hypoxia inh growth,/,-5,1,9,12,10
Bead autofluor,2330,2551,4893,4440,3286,3517

13) CCN(CC)S(=O)(=O)c1cccc(C(=O)OCC(=O)NCCN2C(=O)CSC2=O)c1
14) CCOc1ccccc1C(=O)OCC(=O)Nc1cc(Cl)ccc1Oc1ccccc1
15) O=C(CCn1cccn1)Nc1ccc2c(c1)OCCO2
16) Cc1cc(C(=O)Nc2cccc(C)c2C)c2ccccc2n1
17) Cc1cccc(NC(=S)NNC(=S)NCc2ccccc2)c1
18) COc1ccc(S(=O)(=O)N2CCCCCC2)cc1C(=O)N(C)CC(=O)Nc1ccccc1Br

screen / no.,13,14,15,16,17,18
ugtP null kill,5,-11,0,11,-1,6
Sa RN4220 lethal,2.2,4.5,-1.1,5.1,5.8,4.1
PrP UTR inh,-8,-18,-2,-5,-31,-6
BJeLR viability,/,-8,7,0,1,2
Mtb hypoxia inh,-9,9,10,4,2,11
Mtb hypoxia inh growth,2,3,3,3,3,2
Bead autofluor,3496,2246,6009,3711,22617*,4581

19) Cc1cc(C)n(-c2nc3ccccc3s2)n1
20) CN(C(=O)COC(=O)CNC(=O)c1sc2ccccc2c1Cl)C1CCS(=O)(=O)C1 (stereo not drawn)
21) O=C(NC(=S)Nc1sc2c(c1C(=O)O)CCCC2)c1ccccc1
22) Cc1ccc(-n2ncc3c(=O)n(CC(=O)N4CCN(C(=O)c5ccco5)CC4)cnc32)cc1
23) COc1ccc(NC(=S)N(CCCN2CCCC2)Cc2cccs2)cc1
24) Cc1nc(SCc2c(Cl)cccc2Cl)nc(OC(=O)N(C)C)c1C

screen / no.,19,20,21,22,23,24
ugtP null kill,11,-1,/,8,-2,13
Sa RN4220 lethal,11,1.5,/,2.3,4.5,-4.2
PrP UTR inh,-38,-22,-5,-24,-14,-22
BJeLR viability,5,/,-8,/,13,6
Mtb hypoxia inh,17,8,/,10,11,-12
Mtb hypoxia inh growth,12,7,/,5,9,3
Bead autofluor,2522,3602,3727,3869,8800,3757

25) COc1ccc([C@H]2CC(=O)C=C(c3ccc(CO)cc3)C2)cc1
26) CN1C(C(=O)NCc2cccc(Br)c2)CC2Cn3c(nc4cc(Cl)c(Cl)cc43)C21 (stereo not drawn)
27) CN(CCC1CCOCC1)C(=O)C1CCC(=O)N(CCc2ccc(Cl)cc2)C1 (stereo not drawn)
28) COc1ccc(C(=O)C(C)N(C(=O)c2ccc(Cl)cc2Cl)N2C(=O)C3C4C=CC(C4)C3C2=O)cc1 (stereo not drawn)
29) COc1ccc(C(=O)N(Cc2ccccc2)c2cccc(C)c2)c(OC)c1OC
30) Cc1cc(SCC(=O)c2cccc([N+](=O)[O-])c2)nc(=O)[nH]1

screen / no.,25,26,27,28,29,30
ugtP null kill,3,-11,8,-10,8,0
Sa RN4220 lethal,-12,-9.1,3.0,-0.4,11,2.2
PrP UTR inh,-20,2,-12,/,-12,-31
BJeLR viability,/,2,4,-3,1,3
Mtb hypoxia inh,15,9,-1,1,10,2
Mtb hypoxia inh growth,10,13,-1,10,13,2
Bead autofluor,4648,3718,5721,11103,5109,5742

31) Clc1ccccc1-c1ncnc2ccc(Br)cc12
32) Cc1ccc(-c2nn(C)c(=O)c3ccccc23)cc1CNC(=O)CSc1nc2ccccc2o1
33) COc1ccc(CC(=O)NCC(=O)NN=Cc2c[nH]c3ccccc23)cc1
34) COc1cc(NC(=O)c2ccccc2)ccc1NC(=O)Cc1ccccc1
35) CC(C)C(NC(=O)OC(C)(C)C)C(=O)NC(CCC(=O)OCc1ccccc1)C(N)=O (stereo not drawn)
36) COc1ccc(C(=O)NC2CCCCCC2)cc1OC1CCN(C(C)=O)CC1

screen / no.,31,32,33,34,35,36
ugtP null kill,18,-3,3,4,5,2
Sa RN4220 lethal,7.3,-1.3,3.0,5.3,-0.7,2.0
PrP UTR inh,-1,-6,/,-6,1,-12
BJeLR viability,7,-4,/,-10,3,3
Mtb hypoxia inh,1,/,9,7,9,2
Mtb hypoxia inh growth,-10,/,7,2,-7,3
Bead autofluor,5272,4506,/,4287,4416,5455

37) O=[N+]([O-])c1ccccc1/C=C\C=N\N1CCN(c2ccccc2)CC1
38) O=C(Nc1ccccc1)c1ccccc1N=Cc1ccccc1O
39) Oc1ccccc1/C=N/n1c(-c2cccs2)n[nH]c1=S
40) CCc1ncc(C(O)c2cccc(OC)c2OC)n1C (stereo not drawn)
41) O=C(NC1CCCCC1)Oc1cccc2ccccc12
42) O=C(CN(Cc1ccccc1)S(=O)(=O)c1ccccc1)N/N=C/c1ccc2c(c1)OCO2

screen / no.,37,38,39,40,41,42
ugtP null kill,/,7,/,13,-2,/
Sa RN4220 lethal,/,9.9,/,3.3,5.6,/
PrP UTR inh,-27,-37,-25,-14,-8,0
BJeLR viability,1,8,-1,-13,-2,11
Mtb hypoxia inh,/,6,/,2,13,/
Mtb hypoxia inh growth,/,6,/,1,6,/
Bead autofluor,4279,2462,4360,7431,4408,10018

43) CCOc1ccc(C(O)c2nccn2Cc2ccccc2)cc1 (stereo not drawn)
44) CCc1ccccc1NC(=O)C1NC(=O)CC1c1ccccc1 (stereo not drawn)
45) COc1cc(C(C(=O)NC2CCCC2)N(C(=O)c2ccco2)c2ccccc2C(C)=O)cc(OC)c1OC (stereo not drawn)
46) CC(C)(C)C(=O)NC1CCN(S(=O)(=O)c2ccccc2F)CC1
47) CC(C)CN(CC(C)C)C(=O)C12CCC(C)(C(=O)C1)C2(C)C (stereo not drawn)
48) Cc1ccc2c(c1)C1CN(C)CCC1N2C(=O)c1ccccc1NS(=O)(=O)c1ccc(F)cc1 (stereo not drawn)

screen / no.,43,44,45,46,47,48
ugtP null kill,-2,1,2,3,-1,1
Sa RN4220 lethal,2.4,0.8,-2.9,3.0,2.8,6.5
PrP UTR inh,-5,-34,-31,-23,-7,-13
BJeLR viability,-1,8,7,7,4,7
Mtb hypoxia inh,-1,/,-8,5,1,-2
Mtb hypoxia inh growth,0,/,0,0,6,11
Bead autofluor,2455,5576,6280,4219,4344,2596

49) CCOC(=O)N1CCN(C(=O)c2cc(S(=O)(=O)N3CCCC3)cn2C)CC1
50) CC1Cc2ccccc2N1CC(=O)Nc1ccc(Cl)c(S(=O)(=O)N(C)C)c1 (stereo not drawn)
51) CN1CCN(c2oc(-c3ccco3)nc2S(=O)(=O)c2ccccc2)CC1
52) CCOc1ccc(-c2cccc(NS(=O)(=O)c3cc([N+](=O)[O-])ccc3C)c2)nn1
53) COc1ccc(NC(=O)C2CCN(C(=O)NCc3ccccc3)CC2)cc1
54) Cc1cc(C(=O)CN(Cc2ccc(F)cc2)S(=O)(=O)c2ccc3c(c2)OCCO3)c(C)n1C

screen / no.,49,50,51,52,53,54
ugtP null kill,4,8,-6,-4,7,-3
Sa RN4220 lethal,6.0,0.1,-4.0,9.8,6.8,9.5
PrP UTR inh,-17,-9,9,12,-6,-10
BJeLR viability,-8,-1,0,12,0,-3
Mtb hypoxia inh,15,4,/,6,-4,14
Mtb hypoxia inh growth,11,5,/,-2,-3,7
Bead autofluor,4207,3924,5965,?,16148*,20608*

55) O=C(C[N+]1(CC#Cc2ccccc2)CCCCC1)c1ccccc1
56) Cc1ccc(OCC(=O)Nc2ccc3c(c2)nc(CCN2CCN(C)CC2)n3C)cc1
57) CCCN1CCC(NC2CCC(O)CC2)CC1 (stereo not drawn)
58) CCc1ccc(NC(=O)C(C)OC(=O)Cc2cc(OC)c(OC)c(OC)c2)cc1 (stereo not drawn)
59) Cc1ccc(S(=O)(=O)N2CC2(C)CCl)cc1 (stereo not drawn)
60) O=c1cc(O)c2sc3nc4c(c(C(F)(F)F)c3c2[nH]1)CCCCC4

screen / no.,55,56,57,58,59,60
ugtP null kill,7,-3,4,4,5,16
Sa RN4220 lethal,2.0,-3.8,0.9,3.2,5.1,4.9
PrP UTR inh,17,-16,-27,2,-14,-12
BJeLR viability,-13,4,1,/,3,-1
Mtb hypoxia inh,-2,0,10,2,6,1
Mtb hypoxia inh growth,10,8,1,4,10,6
Bead autofluor,4114,6518,3924,3462,3952,4174

Single records, from the list above. Order of screens: ugtP null kill | Sa RN4220 lethal | PrP UTR inh | BJeLR viability | Mtb hypoxia inh | Mtb hypoxia inh growth | Bead autofluor
Shown for O=c1cc(O)c2sc3nc4c(c(C(F)(F)F)c3c2[nH]1)CCCCC4 → 16 | 4.9 | -12 | -1 | 1 | 6 | 4174
Shown for CCc1ccc(NC(=O)C(C)OC(=O)Cc2cc(OC)c(OC)c(OC)c2)cc1 (stereo not drawn) → 4 | 3.2 | 2 | / | 2 | 4 | 3462

Next records:
61) CN(C)C(=O)Oc1ccc(OC(=O)c2ccccc2)cc1
62) Cc1cc2c(c(SCC(=O)Nc3ccc(C)c(C)c3)n1)C(=O)OC2
63) COc1cc(CN2CC(C)OC(C)C2)cc(OC)c1 (stereo not drawn)
64) CC1(C)Cc2ccccc2C2=NNC(=O)C2=N1
65) Cn1ccc(NC(=O)c2ccc([N+](=O)[O-])cc2)n1
66) COc1ccc(C(=O)/C=C/c2ccc(O)cc2)c(O)c1CC=C(C)C

screen / no.,61,62,63,64,65,66
ugtP null kill,-1,5,1,12,1,/
Sa RN4220 lethal,5.5,14,0.2,21,0.6,/
PrP UTR inh,-29,-1,-9,-18,-14,-25
BJeLR viability,-2,1,6,-13,/,5
Mtb hypoxia inh,-3,13,-5,15,2,/
Mtb hypoxia inh growth,3,3,-5,14,-11,/
Bead autofluor,11655,4123,15307,3648,6134,4066

67) O=C(CSc1nnc2c(Cl)cc(C(F)(F)F)cn12)NCc1ccc(F)cc1
68) COc1ccc(NC(=O)Nc2cccc([N+](=O)[O-])c2)cc1Cl
69) CC1=C/C(=N\N=C2\NC(=O)C(CC(=O)Nc3ccccc3F)S2)CC(C)(C)C1 (stereo not drawn)
70) CC(C)COC(=O)/C(C#N)=C/c1cn(Cc2ccccc2)c2ccccc12
71) O=C(O)CC1(CC(=O)NCc2ccc(C(F)(F)F)cc2)CCCCC1
72) O=C(NNC(=O)C12CC3CC(CC(Cl)(C3)C1)C2)c1ccncc1
73) COc1ccc(C(=O)CCc2ccccc2O)c(OC)c1
74) Cc1cc(Br)c(NC(=O)CSc2n[nH]c(N)n2)c(Br)c1

screen / no.,67,68,69,70,71,72,73,74
ugtP null kill,-14,-34,/,14,7,4,6,4
Sa RN4220 lethal,11,-3.5,/,-3.8,1.0,3.5,4.4,0.6
PrP UTR inh,-17,-34,16,5,-36,-14,-71,-19
BJeLR viability,2,10,-11,0,5,0,-6,/
Mtb hypoxia inh,2,7,/,7,6,6,10,4
Mtb hypoxia inh growth,0,14,/,0,9,4,12,8
Bead autofluor,2406,2073,2090,1941,4551,5078,3882,8822

Screening data: PubChem, several laboratories
